Rango complex inh – prevents formation of the Rango-importin beta complex; Potency, µM (titrated, usually from 92.2 µM), inactives show at the highest dose inhibition of complex formation; 0.031% of 340,000 active; Rango CFP/YFP FRET sensor + importin beta, 45 min; Q14974; AID 540263; active = rising FRET ratio curve, often small or poorly fitted; inconclusive = mostly compound fluorescence or quenching in the first reads; inactive = flat curves in all reads;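 note: potency is the fitted concentration of half-maximal effect; 0% = DMSO wells and 100% = buffer wells lacking importin beta; nearly all actives have a fitted effect of over 15% in size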
Target sequence (Q14974 whole entry, looked up): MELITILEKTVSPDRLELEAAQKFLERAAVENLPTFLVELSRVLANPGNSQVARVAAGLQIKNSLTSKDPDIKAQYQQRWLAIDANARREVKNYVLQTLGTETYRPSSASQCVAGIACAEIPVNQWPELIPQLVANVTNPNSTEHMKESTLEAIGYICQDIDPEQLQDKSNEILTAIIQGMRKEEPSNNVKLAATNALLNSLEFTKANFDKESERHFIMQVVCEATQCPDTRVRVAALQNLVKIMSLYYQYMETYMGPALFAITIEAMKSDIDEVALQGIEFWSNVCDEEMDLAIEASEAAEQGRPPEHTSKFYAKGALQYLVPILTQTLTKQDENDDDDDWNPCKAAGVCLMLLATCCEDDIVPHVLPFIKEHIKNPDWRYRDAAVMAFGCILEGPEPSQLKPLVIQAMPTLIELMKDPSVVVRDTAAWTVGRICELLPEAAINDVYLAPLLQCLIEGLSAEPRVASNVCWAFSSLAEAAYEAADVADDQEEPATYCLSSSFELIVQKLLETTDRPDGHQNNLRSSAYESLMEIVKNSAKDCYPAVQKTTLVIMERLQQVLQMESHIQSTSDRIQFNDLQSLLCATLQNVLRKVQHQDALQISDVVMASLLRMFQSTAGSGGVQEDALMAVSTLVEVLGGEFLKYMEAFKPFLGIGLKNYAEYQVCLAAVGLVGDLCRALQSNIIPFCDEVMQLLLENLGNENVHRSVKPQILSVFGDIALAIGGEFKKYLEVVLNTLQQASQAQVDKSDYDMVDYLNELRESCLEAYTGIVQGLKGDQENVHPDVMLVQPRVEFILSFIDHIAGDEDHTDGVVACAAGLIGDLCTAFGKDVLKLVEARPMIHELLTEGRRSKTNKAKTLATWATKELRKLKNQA
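FRET biosensor (snurportin 1 IBB flanked by EYFP and cerulean), 50 nM, with compound 5 min, then 0.125 microM importin beta in PBS, 1 mM DTT, 0.02% Tween-20, 0.1% BSA. CFP/YFP ratio read after 45 min at room temperature; pre-read flags interference.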
GLA inh pH 4.5 – inhibitors of human alpha-galactosidase A at pH 4.5. AID 1467. purified enzyme, 4-MU-alpha-Gal fluorescence, pH 4.5. P06280. activity change, negative = inhibition, % at 105 µM. 230,000 tested, under 10 active; inconclusive = small, poorly fitted or top-dose-only inhibition, or a rising curve; inactive = flat fitted curve, though single readings scatter; no compound was filed as active;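 note: 0% = full activity with enzyme and -100% = basal without enzyme; dose as in the result columns while the protocol names 77 µM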
Rango dissoc inh – inhibition of RanGTP-driven Rango-importin beta dissociation. Biochemical FRET Rango-importin beta, RanGTP-induced dissociation. 0.071% of 340,000 active. O95149+P62826. Potency, µM (top dose mostly 46.1 µM), for the others: at the highest dose activity change, negative = inhibition. AID 540253; active means falling FRET ratio curve, often poorly fitted, with flat reads before Ran was added; inconclusive means other falling curves, or compound fluorescence or quenching; inactive means flat or rising ratio curve;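 note: potency is the fitted concentration of half-maximal effect; % of control where 0% means no effect; nearly all actives have a fitted effect of over 45% in size; -100% = wells without RanGTP and RCC1; the record marks most hits as doubtful in a second field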
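Rango (0.1 uM)–importin beta (0.25 uM) complex; RanGTP-RCC1 trigger; 45 min RT; CFP/YFP FRET read.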
miR-21 FLuc – miR-21 reporter, rising signal | HeLa miR-21 FLuc reporter, luciferase, 48 h | AID 2288 | Potency, µM (doses to about 38.3 µM), inactives show top-dose reporter change, positive = more light | 340,000 tested, under 10 active; active = well fitted rising curve with a large enough effect; inconclusive = small, poorly fitted or top-dose-only effect; inactive = no such curve, though single readings can be large or run the other way;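 note: % of control where 0% means no effect; miR-21 action dims this reporter so a rising signal means less miR-21 action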
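HeLa cells endogenously expressing miR-21, stably carrying CMV-driven firefly luciferase with a downstream miR-21 binding site, 2000 cells/well. Titrations up to approximately 40 uM, 48 hours; luciferase luminescence read.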
Active calls of the source: *; ? = inconclusive; . = no result given. An excerpt; the hit share may differ from the screen's.

Values run as follows: Rango complex inh, GLA inh pH 4.5, Rango dissoc inh, miR-21 FLuc
- COc1ccccc1COn1c(=O)c(-c2ccco2)[n+]([O-])c2ccccc21
    ?, -4.6, ?, -4.1%
- Cc1ccc(N=Cc2cc3c(cc2[N+](=O)[O-])OCO3)cc1[N+](=O)[O-]
    -3.0%, ., -11.5%, .
- CC(=CC(=O)c1ccccc1)c1ccccc1
    0.4%, ., 2.0%, .
- CC(=O)c1cccc(NC(=O)c2cc(-c3ccncc3)nc3ccccc23)c1
    6.8%, ., 18.1%, .
- Cc1nnc(SCC(=O)Nc2nnc(SCc3cccc(Br)c3)s2)s1
    0.3%, 4.8, 4.7%, -15.2%
- CC(C)OCC(O)CN1CCC(Cc2ccccc2)CC1 (centres undefined)
    -1.4%, ., 0.8%, -2.1%
- COCCNc1nnc(SCC(=O)c2ccc3c(c2)OCO3)s1
    2.9%, 12.8, -7.4%, -11.2%
- Cc1ccc(C)c(N(C)S(=O)(=O)c2ccc3c(c2)oc(=O)n3C)c1
    1.5%, ., 26.8%, -3.4%
- COc1ccc(CNC(=O)c2cc(-c3cc(C)cc(C)c3O)n[nH]2)cc1
    -0.2%, -11.2, 1.6%, 4.7%
- O=C1OC[C@@H]2CCCN2C(=O)[C@@H](CC(=O)N(CCO)Cc2ccccc2)C/C=C\CC[C@H]1Cc1ccc(F)cc1
    -0.6%, ., -9.9%, .
- NC(=O)N/N=C\c1cccs1
    -8.0%, 1.8, -2.8%, -3.8%
- Cc1ccc(N(C)S(=O)(=O)c2cccc(C(=O)OCC(=O)N3CCCC(C)C3)c2)cc1 (centres undefined)
    -0.1%, ., 11.7%, .
- O=C(Nc1ccc(N2CCOCC2)cc1)c1nc2ccccc2s1
    -0.3%, 0.8, 5.1%, -75.2%
- Cc1ccc(NC(=O)Cn2nnc(C(=O)NCc3ccccc3)c2N)cc1C
    -4.0%, 5.2, 4.2%, -5.9%
- CC(=O)Nc1ccc(Nc2cc(-c3ccccc3)nc3ncnn23)cc1
    2.8%, -16.9, 27.6%, 0.2%
- Cc1ccc(C)c(N2CCN(S(=O)(=O)c3ccc4c(c3)C(C)(C)C(=O)N4C)CC2)c1
    1.9%, ., 23.9%, 5.8%
- CC(C)NC(=O)COC(=O)c1ccc(Oc2ccccc2)cc1
    3.3%, 3.1, 14.3%, -0.8%
- Cc1ccc2nc(-c3ccc(NC(=O)CN4C(=O)c5ccccc5C4=O)cc3)sc2c1
    ?, -8.9, ?, -68.1%
- O=C(/C=C/c1cccs1)c1ccc(NC(=O)c2cccc(Br)c2)cc1
    -0.8%, -6.0, -3.4%, -33.6%
- CC1CN(c2ccnc3cc(Cl)ccc23)CC(C)O1 (centres undefined)
    0.2%, ., 2.0%, -1.1%
- O=C(NN=C1c2ccccc2-c2ccccc21)c1cccc(Br)c1
    -5.3%, 0.6, 11.7%, -7.5%
- CCCNC(=O)CSc1nc2[nH]ncc2c(=O)[nH]1
    0.7%, 5.5, 21.1%, 0.1%
- COc1ccc(Cl)cc1NC(=O)NC1CCCCC1
    -2.3%, -4.1, 0.3%, -7.0%
- O=C(CSc1nc2c(c(=O)n1-c1ccccc1)SCC2)N1CCN(c2ccccc2)CC1
    3.1%, 5.3, 1.5%, -4.8%
- CC1CCN(S(=O)(=O)c2cccc(-c3csc(-c4cccnc4)n3)c2)CC1
    0.7%, 2.4, -7.4%, -5.3%
- CC(=O)NC1CC(C)(C)N(OC(C)=O)C(C)(C)C1
    -2.2%, 0.5, 4.9%, -2.6%
- Cc1ccc(S(=O)(=O)N2CC(O)CC2C(=O)OCc2nc3sc(C)c(C)c3c(=O)[nH]2)cc1 (centres undefined)
    3.0%, 2.6, -13.7%, -16.8%
- CCOC(=O)N1CCN(C(=O)c2n[nH]c(=O)c3ccccc23)CC1
    1.4%, 6.0, -10.6%, -2.9%
- Cn1cccc1/C=N/NC(=O)c1cccs1
    -1.2%, ., 17.2%, -53.1%
- COC(=O)C1=C(C)NC(=S)NC1c1ccc(-c2cccc(Cl)c2)o1 (centres undefined)
    -0.9%, -1.8, -2.6%, -8.5%
- Cc1cccc(-n2ccc(=O)c(C(=O)Nc3ccc(S(=O)(=O)N4CCOCC4)cc3)n2)c1
    3.9%, ., 2.3%, -0.9%
- CCOC(=O)c1[nH]cnc1C(=O)Nc1cccc(N)n1
    2.1%, 1.0, 1.3%, 6.3%
- CCOC(=O)/C(=C\c1c[nH]c2ccccc12)NC(C)=O
    -3.8%, 10.2, 1.8%, 0.9%
- Cc1cc(Cl)ccc1OCc1n[nH]c(=S)n1C1CCCCC1
    2.3%, -2.9, -8.2%, 5.2%
- CC1CC(=O)C2=C(C1)OC(N)=C(C#N)C2c1coc2ccccc2c1=O (centres undefined)
    ?, -4.7, -16.9%, -8.1%
- CC1CCCCC12NC(=O)N(CC(=O)N1CCc3ccccc3C1)C2=O (centres undefined)
    11.6%, ., -12.4%, .
- CSCCC(NS(=O)(=O)/C=C/c1ccccc1)C(=O)N1CCC(C)CC1 (centres undefined)
    -0.8%, -1.6, -12.5%, -2.6%
- O=C(COc1ccc2ccccc2c1)Nc1nccs1
    -1.2%, -11.9, -5.1%, -12.2%
- COc1ccc(S(=O)(=O)NCc2ccco2)cc1C(=O)N1CCOCC1
    -0.3%, ., -0.5%, -0.2%
- O=C(Nc1nccs1)c1nc[nH]c1C(=O)NCc1ccccc1
    0.4%, ., -6.8%, .
- NCCCCCC(=O)N/N=C/c1ccc2nccnc2c1
    4.2%, -7.5, 9.3%, -5.4%
- COc1ccc(/C=N/n2c(-c3cccs3)n[nH]c2=S)cc1
    5.2%, 3.9, -3.8%, 4.2%
- CCNC(=O)N1CCN(C(=O)NCC)CC1
    2.3%, -0.9, -2.2%, 0.9%
- CC(=O)c1ccc(-c2ccc(C(=O)N(C)c3c(N)n(Cc4ccccc4)c(=O)[nH]c3=O)o2)cc1
    -3.1%, ., 13.2%, .
- O=C(CCC(=O)N/N=C/c1cc(Cl)cc(Cl)c1O)NCc1ccccc1
    ?, 9.6, ?, 1.2%
- O=C(Nc1nc2ccccc2s1)c1ccc(OCC2CCCO2)cc1 (centres undefined)
    0.8%, 1.0, -2.9%, 28.4%
- CC[C@@H](C)C(NC(=O)OC(C)(C)C)c1cn([C@@H](Cc2ccc(O)cc2)C(=O)N2CCN(C(=O)OC(C)(C)C)CC2)nn1 (some centres undefined)
    2.1%, -2.4, 2.4%, 4.2%
- COc1cccc(CC(=O)Nc2ccc3c(c2)CCC3)c1
    3.1%, ., 2.0%, -25.5%
- CC(C)C(=O)Nc1ccc2nn(-c3ccc(F)cc3)nc2c1
    ?, ., -29.9%, -41.2%
- COc1ccc(CCNC(=O)CSc2nn(-c3ccccc3)c(=S)s2)cc1
    -1.9%, -2.2, 16.8%, 3.4%
- CCOC(=O)c1c(C)[nH]c(C)c1S(=O)(=O)N1CCN(c2cccc(C)c2)C(C)C1 (centres undefined)
    ?, ., -1.3%, 2.1%
- Cc1ccc(OCCNC(=O)CCc2nc3sc4c(c3c(=O)[nH]2)CCCC4)cc1
    ?, ., -3.3%, .
- CC[C@]12c3[nH]c4cc(-c5ccco5)ccc4c3CCN1C(=O)[C@@H](CC(=O)NCCCN(C)C)C[C@@H]2C(=O)N1CCN(C(=O)c2ccco2)CC1
    -4.9%, ., 10.5%, .
- CC1Cc2ccccc2N1C(=O)C1CCCN1S(=O)(=O)c1ccc(Cl)cc1 (centres undefined)
    0.9%, -3.4, -8.4%, 1.0%
- N#Cc1cn(CC(=O)NCc2cccnc2)c2ccccc12
    4.7%, -0.9, 0.2%, 2.2%
- O=C(COC(=O)c1cc[n+]([O-])cc1)Nc1cccc(Cl)c1Cl
    -4.0%, 6.0, -7.1%, -5.5%
- O=C1N=C(N2CCOCC2)S/C1=C\C=C/c1ccccc1
    3.7%, -3.7, -4.9%, -70.8%
- Cn1nc(C(C)(C)C)cc1C(=O)NCc1ccc(N2CCCC2=O)cc1
    2.2%, 1.3, 10.1%, 17.0%
- CN(CC(=O)Nc1ccc(Cl)c(C(F)(F)F)c1)C(=O)c1ccc(N2CCOCC2)c([N+](=O)[O-])c1
    7.5%, ., 14.9%, .
- COc1cc(/C=N/NC(=O)CCn2c3ccccc3c3ccccc32)ccc1O
    -3.1%, -28.4, ?, 12.5%

Next section.
Values run as follows: Rango complex inh, GLA inh pH 4.5, Rango dissoc inh, miR-21 FLuc
- CC(Oc1ccc2ccc(=O)oc2c1)C(=O)NCCN1CCOCC1 (centres undefined)
    ?, ., ?, -0.6%
- COc1ccccc1OCCSc1nnnn1C1CCCCC1
    2.0%, ., 1.1%, .
- C/C=C/C(=O)OCC(=O)NC(=O)NC(C)C
    -1.4%, 8.9, 16.3%, -1.4%
- CCOC(=O)Cn1c(C)cc(=O)c2cccc(C)c21
    1.2%, -2.1, 3.7%, 1.3%
- O=C1[C@@H]2[C@H](C(=O)N1Cc1ccco1)[C@H]1C=C[C@@H]2C1
    -1.3%, 1.2, 33.0%, -1.5%
- CCOc1cc(S(=O)(=O)n2cc(-c3ccc(F)cc3)c(N)n2)cc(OCC)c1OCC
    -2.1%, -16.3, 29.5%, 26.6%
- CCC1=NNc2cccc3c(OC)ccc1c23
    ., -6.2, ., 5.7%
- CCCNC(=O)C1CC(=O)N(c2ccc(OCC(=O)Nc3cccc(C)c3C)cc2)C1 (centres undefined)
    -4.0%, 11.5, 16.8%, -9.2%
- Cc1cc(C)n(CCc2nc(-c3ccc(C)o3)cs2)n1
    -0.2%, 2.9, -5.2%, 17.1%
- CC1CN(C(=O)CCC(=O)N2CCCCC2)c2cc(Cl)ccc2O1 (centres undefined)
    4.3%, ., 7.6%, 0.4%
- CCCOc1ccc(C(=O)Nc2ccc3c(c2)OCCO3)cc1
    -1.2%, ., 3.2%, -28.1%
- CCOc1ccc(Nc2nc(Cc3nnc(SCC(=O)c4ccc(C)c(C)c4)o3)cs2)cc1
    -4.6%, -8.9, 1.0%, 20.4%
- CCN1CCCC1CNC(=O)c1cc(COc2ccc(C)c(C)c2)on1 (centres undefined)
    -0.5%, ., -7.5%, -38.0%
- COc1ccc2[nH]c3c(c2c1)CCN1C(=O)C(CC(=O)NCc2ccco2)C[C@H](C(=O)N2CCOCC2)[C@@]31C (some centres undefined)
    3.5%, ., 8.2%, .
- Cc1ccc(-c2c(=O)n(O)c3ccccc3[n+]2[O-])cc1
    ?, ., ?, -5.2%
- COc1c(OC(C)=O)ccc(/C=C/c2ccc3ccccc3n2)c1[N+](=O)[O-]
    0.4%, -16.7, -5.5%, -43.1%
- CCCCCCCCOC(=O)c1cc([N+](=O)[O-])c(Sc2ncnc3nc[nH]c23)c([N+](=O)[O-])c1
    9.0%, ., 14.9%, .
- CCOC(=O)c1sc(NC(=O)CSc2nnc(C(C)C)n2CC)nc1C
    -1.0%, -0.6, -6.2%, -7.4%
- Cc1ccc(Nc2nc(C(=O)N3CCC(C(=O)NC(C)C)CC3)cs2)cc1
    1.7%, 4.1, 27.1%, -16.4%
- CCOC(=O)N1CCN(S(=O)(=O)c2ccc3c(c2)CCN3C(=O)CC)CC1
    1.1%, 1.5, 7.2%, -0.3%
- CCOc1ccccc1CN1CCC(N2CCC(C(=O)NC3CC3)CC2)CC1
    -2.0%, ., 13.5%, -5.4%
- O=c1c2c3nc4ccccc4nc3n(Cc3ccccc3)c2ncn1Cc1ccco1
    ?, -8.3, -24.8%, -2.4%
- CCOC(=O)c1ccc(NC(=O)Nc2cc(C)cc(C)n2)cc1
    ., 0.4, ., -1.7%
- Cc1cccc(C)c1NC(=O)CNC(=O)c1ccc(COc2ccccc2)o1
    0.2%, ., -17.7%, .
- CC(=O)c1ccccc1OCC(O)CN1CCN(c2ccccn2)CC1 (centres undefined)
    3.3%, ., 0.6%, 3.1%
- CC(Sc1ccccn1)C(=O)NC1CCCC1 (centres undefined)
    1.4%, ., 0.2%, .
- Cc1cc2c(cc(C(=O)OC(C(=O)NC3CCCCC3)C(C)C)n2C)o1 (centres undefined)
    3.0%, ., -13.8%, .
- Cc1ccc(S(=O)(=O)N2CCOCC2)cc1NC(=O)COC(=O)C1(C)CC1(Cl)Cl (centres undefined)
    0.2%, ., 37.1%, .
- O=C(Nc1ccc(Cl)cn1)c1ccc2c(c1)OCCO2
    -0.3%, 5.7, 9.0%, 14.3%
- CCn1cc(C(=O)NCc2cccs2)c(=O)c2cc(S(=O)(=O)N3CCOCC3)ccc21
    0.2%, -2.8, 30.6%, 0.2%
- Cc1cc(NC(=O)CN2C(=O)NC3(CCCCC3)C2=O)no1
    1.9%, -1.1, 4.8%, -9.1%
